High-throughput results from PubChem.
Hedgehog cleavage: Hh protein inhibition, biochemical readout – plate reader, single concentration, primary screen (AID 588832); Biochemical plate reader assay, Hedgehog inhibition; stronger effect = higher value; inhibition, % at 30.3 µM; 8,000 tested, under 10 active; in the data active = inhibition from about 57%;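 also: 0% = neutral control wells and 100% = positive control wells; cholesterol-driven self-cleavage of fly hedgehog protein by fluorescence polarization; read one hour after cholesterol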
* marks the source's active call; other numbers are inactive results.

(1) C=CC[C@]12CC=CC(=O)[C@@]1(O)O[C@H](c1ccc(OC)c(OC)c1)[C@H]2C
  Hedgehog cleavage: 7

(2) COc1ccc(CCNC(=O)C(=O)NCC2OCCN2S(=O)(=O)c2ccccc2)cc1OC (stereo unspecified)
  Hedgehog cleavage: 2

(3) O=C(CSc1cn(CCNC(=O)c2ccc3ccccc3c2)c2ccccc12)NCc1ccco1
  Hedgehog cleavage: -24

(4) COc1ccc(NC(=O)c2cccc3c2C(=O)N(CC2CCCO2)C3)cc1OC (stereo unspecified)
  Hedgehog cleavage: 9

(5) COc1ccc(-c2oc3cc(O)c(OC)c(O)c3c(=O)c2OC)cc1
  Hedgehog cleavage: 8

(6) Cc1nc2ccccc2c2oc(C(=O)NCCCN3CCC(C)CC3)cc12
  Hedgehog cleavage: 9

(7) Cc1ccc(S(=O)(=O)Nc2ccc(O)c3ncccc23)cc1
  Hedgehog cleavage: 64*

(8) Cc1cc(NC(=O)CSc2nnc(Cn3c(=O)sc4ccccc43)n2-c2ccccc2C)no1
  Hedgehog cleavage: 0

(9) O=C(NC1CCCCC1)N1CCC(n2c(=O)[nH]c3ccccc32)CC1
  Hedgehog cleavage: 3

(10) O=c1[nH]cc(O)c(=O)[nH]1
  Hedgehog cleavage: 7

(11) O=C1CC(c2ccc(O)cc2)Oc2cc(O)ccc21 (stereo unspecified)
  Hedgehog cleavage: 3

(12) CCc1ccccc1N1CC23C=CC(O2)C(C(=O)OCC(C)C)C3C1=O (stereo unspecified)
  Hedgehog cleavage: 15

(13) C=C(C)C1CCC2(C(=O)O)CCC3(C)C(CCC4C5(C)C(C=O)C(O)C(C)(C)C5CCC43C)C12 (stereo unspecified)
  Hedgehog cleavage: 8

(14) Cc1c(C)c2c(OCC(=O)NCC3CCC(C(=O)O)CC3)cc3c(c2oc1=O)CCC(C)(C)O3 (stereo unspecified)
  Hedgehog cleavage: 5

(15) Cc1cc(C)cc(NC(=O)C2CCCN2S(=O)(=O)c2ccc3c(c2)n(C)c(=O)c(=O)n3C)c1 (stereo unspecified)
  Hedgehog cleavage: 10

(16) CCOC(=O)c1[nH]c(C)c(C(=O)NCc2ccc(OC)cc2)c1C
  Hedgehog cleavage: 1

(17) CC(C)=CCCC1(C)C=Cc2c(c(C)cc3c2[nH]c2cc(O)ccc23)O1 (stereo unspecified)
  Hedgehog cleavage: 7

(18) Cc1ccc(S(=O)(=O)N2CCCCC2C(=O)N(C)c2ccccc2)cc1 (stereo unspecified)
  Hedgehog cleavage: 11

(19) COCCn1c(SCC(N)=O)nnc1-c1c[nH]c2ccccc12
  Hedgehog cleavage: 10

(20) COc1cc(OC)c2ccc(=O)oc2c1
  Hedgehog cleavage: 3

(21) Cc1cc(C)n2c(SCCN3C(=O)c4ccccc4C3=O)nnc2n1
  Hedgehog cleavage: -8

(22) Cc1ccc(-c2nc(SCC(=O)NCC3CCCO3)c(-c3ccccc3)[nH]2)cc1 (stereo unspecified)
  Hedgehog cleavage: 5

(23) CCCCC(=O)Nc1nc2c(s1)COc1ccccc1-2
  Hedgehog cleavage: 0

(24) COC(=O)c1ccc(CSc2nc3c(c(=O)n2-c2ccccc2)SCC3)o1
  Hedgehog cleavage: 8

(25) COc1ccc(C2N(c3ccc(OC)cc3)C(=O)C3CCCN32)cc1 (stereo unspecified)
  Hedgehog cleavage: 9

(26) CC(C)(c1cc(Br)c(O)c(Br)c1)c1cc(Br)c(O)c(Br)c1
  Hedgehog cleavage: 11

(27) CCOC(=O)CN1CC23C=CC(O2)C(C(=O)NC2CCCCCC2)C3C1=O (stereo unspecified)
  Hedgehog cleavage: 7

(28) COc1ccc(S(=O)(=O)N2CCN(C)CC2)c2ccccc12
  Hedgehog cleavage: 8

(29) CC(=O)N1CCc2cc(C(=O)CN3CCN(c4ccccc4F)CC3)ccc21
  Hedgehog cleavage: 7

(30) CN(CCNC(=O)Cn1c(=O)sc2ccccc21)Cc1ccccc1
  Hedgehog cleavage: 15

(31) CCc1ccc(NC(=O)c2ccc3c(c2)C(=O)N(CCOC)C3Nc2ccc(CC)cc2)cc1 (stereo unspecified)
  Hedgehog cleavage: 5

(32) CC(O)CO (stereo unspecified)
  Hedgehog cleavage: 0

(33) COc1ccc(-c2nc(CS(=O)CC(=O)NCCC3=CCCCC3)c(C)o2)cc1 (stereo unspecified)
  Hedgehog cleavage: 8

(34) Cc1csc2nc(CNC(=O)C3CCCCC3)cn12
  Hedgehog cleavage: 4

(35) CCN(c1ccccc1)S(=O)(=O)c1cc2c(cc1C)NC(=O)CO2
  Hedgehog cleavage: 4

(36) CC(C)Cc1nccs1
  Hedgehog cleavage: 7

(37) CC1=C(C(=O)OC(C)C)C(c2cccc(F)c2)n2ncnc2N1 (stereo unspecified)
  Hedgehog cleavage: 1

(38) O=C1CCc2cc(S(=O)(=O)N3CCCC3C(=O)N3CCN(c4ccccc4F)CC3)ccc2N1 (stereo unspecified)
  Hedgehog cleavage: -1

(39) O=C(NCCN1C(=O)C2C3C=CC(C3)C2C1=O)N1CCOCC1 (stereo unspecified)
  Hedgehog cleavage: 8

(40) Cc1cc(Nc2ccc(F)cc2F)n2nc(C)nc2n1
  Hedgehog cleavage: 10

(41) CC1CCc2nn(CC(=O)NCCN3CCCCC3C)cc2C1 (stereo unspecified)
  Hedgehog cleavage: 2

(42) O=C(NCc1cccnc1)C(=O)NCC1OCCN1S(=O)(=O)c1ccc(F)cc1 (stereo unspecified)
  Hedgehog cleavage: 1

(43) Nc1nc(SCC(=O)N2CCCCCC2)[nH]c(=O)c1NC(=O)c1ccco1
  Hedgehog cleavage: 5

(44) CCOc1ccccc1NC(=O)C1CCCN(S(=O)(=O)c2cccc3cccnc23)C1 (stereo unspecified)
  Hedgehog cleavage: 0

(45) CC(C)c1ccc(NC(=O)c2ccc(NC3=NC4CS(=O)(=O)CC4S3)cc2)cc1 (stereo unspecified)
  Hedgehog cleavage: 3

(46) Cc1c(C(=O)NCc2ccc3c(c2)OCO3)sc2nc(-c3ccccc3)cn12
  Hedgehog cleavage: 7

(47) Cc1cc2c(cc1S(=O)(=O)N1CCN(c3ccccc3)CC1)OCCN2C
  Hedgehog cleavage: 7

(48) Cc1cccc(N2CCN(S(=O)(=O)c3ccc4[nH]c(=O)ccc4c3)CC2)c1C
  Hedgehog cleavage: -6

(49) O=C1OC(N2C(=O)CC[C@H]2C(=O)Nc2ccc3c(c2)OCO3)c2ccccc21 (stereo partly specified)
  Hedgehog cleavage: 7

(50) C/C=C/C=C/C(=O)O
  Hedgehog cleavage: 5

19 compounds from above, ordered by formula weight, descending:
(26) CC(C)(c1cc(Br)c(O)c(Br)c1)c1cc(Br)c(O)c(Br)c1
  Hedgehog cleavage: 11

(38) O=C1CCc2cc(S(=O)(=O)N3CCCC3C(=O)N3CCN(c4ccccc4F)CC3)ccc2N1 (stereo unspecified)
  Hedgehog cleavage: -1

(31) CCc1ccc(NC(=O)c2ccc3c(c2)C(=O)N(CCOC)C3Nc2ccc(CC)cc2)cc1 (stereo unspecified)
  Hedgehog cleavage: 5

(45) CC(C)c1ccc(NC(=O)c2ccc(NC3=NC4CS(=O)(=O)CC4S3)cc2)cc1 (stereo unspecified)
  Hedgehog cleavage: 3

(33) COc1ccc(-c2nc(CS(=O)CC(=O)NCCC3=CCCCC3)c(C)o2)cc1 (stereo unspecified)
  Hedgehog cleavage: 8

(48) Cc1cccc(N2CCN(S(=O)(=O)c3ccc4[nH]c(=O)ccc4c3)CC2)c1C
  Hedgehog cleavage: -6

(43) Nc1nc(SCC(=O)N2CCCCCC2)[nH]c(=O)c1NC(=O)c1ccco1
  Hedgehog cleavage: 5

(47) Cc1cc2c(cc1S(=O)(=O)N1CCN(c3ccccc3)CC1)OCCN2C
  Hedgehog cleavage: 7

(29) CC(=O)N1CCc2cc(C(=O)CN3CCN(c4ccccc4F)CC3)ccc21
  Hedgehog cleavage: 7

(49) O=C1OC(N2C(=O)CC[C@H]2C(=O)Nc2ccc3c(c2)OCO3)c2ccccc21 (stereo partly specified)
  Hedgehog cleavage: 7

(35) CCN(c1ccccc1)S(=O)(=O)c1cc2c(cc1C)NC(=O)CO2
  Hedgehog cleavage: 4

(28) COc1ccc(S(=O)(=O)N2CCN(C)CC2)c2ccccc12
  Hedgehog cleavage: 8

(39) O=C(NCCN1C(=O)C2C3C=CC(C3)C2C1=O)N1CCOCC1 (stereo unspecified)
  Hedgehog cleavage: 8

(41) CC1CCc2nn(CC(=O)NCCN3CCCCC3C)cc2C1 (stereo unspecified)
  Hedgehog cleavage: 2

(37) CC1=C(C(=O)OC(C)C)C(c2cccc(F)c2)n2ncnc2N1 (stereo unspecified)
  Hedgehog cleavage: 1

(40) Cc1cc(Nc2ccc(F)cc2F)n2nc(C)nc2n1
  Hedgehog cleavage: 10

(36) CC(C)Cc1nccs1
  Hedgehog cleavage: 7

(50) C/C=C/C=C/C(=O)O
  Hedgehog cleavage: 5

(32) CC(O)CO (stereo unspecified)
  Hedgehog cleavage: 0

Further records:
(51) Cc1cc2c([nH]c3ccccc32)c2c1OC(C)(C)C=C2
  Hedgehog cleavage: 5

(52) CC(C)(C)NC(=O)CC(CC(=O)O)c1ccccc1 (stereo unspecified)
  Hedgehog cleavage: 5

(53) O=C(NCCc1csc(-c2cccnc2)n1)c1ccc(Cl)cc1
  Hedgehog cleavage: 2

(54) COC(=O)c1ccccc1NC1c2ccccc2C(=O)N1c1cccnc1 (stereo unspecified)
  Hedgehog cleavage: 9

(55) Brc1ccc(-c2nnc3sc(CNCc4ccc5c(c4)OCO5)cn23)cc1
  Hedgehog cleavage: 7

(56) C[C@@H](C(=O)NCCc1ccc(F)cc1)N1C(=O)N2CCc3c([nH]c4ccccc34)[C@@]2(C)C1=O
  Hedgehog cleavage: 5

(57) COc1c2occc2cc2ccc(=O)oc12
  Hedgehog cleavage: 4

(58) COc1ccc(-c2noc(N3CCC(C(=O)Nc4ccc(F)cc4)CC3)n2)cc1
  Hedgehog cleavage: 13

(59) CSc1nnc(Cn2c(=O)sc3ccccc32)n1-c1ccccc1
  Hedgehog cleavage: 25

(60) CC1=C(C(N)=O)C(c2ccccc2)n2nc(-c3cccc(C)c3)nc2N1 (stereo unspecified)
  Hedgehog cleavage: 20

(61) COc1cccc(N2CCN(S(=O)(=O)c3cc4c(cc3Cl)NC(=O)CO4)CC2)c1
  Hedgehog cleavage: 15

(62) CCC(=O)NCCc1nc2ccccc2n1CC(=O)c1ccccc1
  Hedgehog cleavage: 24

Not all compounds are listed, so the mix of outcomes need not match the whole.
